Bioassay records: PubChem BioAssay, National Center for Advancing Translational Sciences (NCATS)
Six1-Eya2 inh – blocks human Six1 binding to Eya2. Q15475+O00167. AlphaScreen GST-Six1/His-Eya2 binding, biochemical; stronger effect = lower value; control for the full effect not named in the record. activity change, % (no concentration beside the values). 360,000 compounds, 0.56% hits. AID 651725; in the data active = activity change below about -65%; inconclusive = about -30% to -65%; inactive = above about -30%; also: % is scaled to controls: 0 for no effect and ±100 for the full control effect
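AlphaScreen with GST-Six1 and His-Eya2 (5X mix: 250 nM and 500 nM), glutathione donor and nickel acceptor beads; buffer 50 mM Tris pH 8.0, 300 mM NaCl, 1 mM TCEP; 1 h at 37 C in the dark.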
TRPML1 ag – activates the human TRPML1 channel; TRPML1-expressing cells, Ca2+ dye fluorescence, FDSS; host cell line not named in the record; reference of the full effect not given here; activation, % (concentration not given with the values); 410,000 compounds, 0.12% hits; in the data active = activation above about 50%; inconclusive = about 30% to 50%; inactive = below about 30%; also: 0% is about no effect; the text of the record puts the active cut at 80%
Target sequence (Q9GZU1 whole entry, looked up): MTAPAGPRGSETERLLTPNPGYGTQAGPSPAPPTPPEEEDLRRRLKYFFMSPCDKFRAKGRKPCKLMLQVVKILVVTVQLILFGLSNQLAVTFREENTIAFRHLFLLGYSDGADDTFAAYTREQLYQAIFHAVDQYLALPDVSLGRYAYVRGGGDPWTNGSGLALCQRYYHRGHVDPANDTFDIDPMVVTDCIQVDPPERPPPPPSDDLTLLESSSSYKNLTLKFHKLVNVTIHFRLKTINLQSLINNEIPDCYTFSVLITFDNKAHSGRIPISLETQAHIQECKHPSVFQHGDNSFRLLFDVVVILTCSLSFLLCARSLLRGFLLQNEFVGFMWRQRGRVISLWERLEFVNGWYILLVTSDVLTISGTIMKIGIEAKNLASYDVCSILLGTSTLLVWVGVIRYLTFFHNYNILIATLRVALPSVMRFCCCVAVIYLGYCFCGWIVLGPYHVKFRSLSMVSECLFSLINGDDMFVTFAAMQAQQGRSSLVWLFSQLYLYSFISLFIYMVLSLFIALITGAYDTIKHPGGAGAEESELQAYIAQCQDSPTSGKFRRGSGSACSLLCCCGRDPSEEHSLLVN
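Agonist activity was taken from a 110 s kinetic Ca2+ dye read on the FDSS after pinning compounds onto TRPML1-DL cells. The cells were seeded at 1,500/well with Tet inducer, incubated about 16 h, then dye-loaded at room temperature.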
CtBP-E1A blk – CtBP/E1A binding inhibition. AlphaScreen GST-E1A/His-CtBP binding, 1536-well; stronger effect = lower value; control for the full effect not named in the record. activity change, % (concentration not given with the values). 340,000 compounds, 0.49% hits. AID 651724; in the data active means activity change below about -65%; inconclusive means about -30% to -65%; inactive means above about -30%; also: % is scaled to controls: 0 for no effect and ±100 for the full control effect
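GST-E1A and His-tagged CtBP (125 nM each as 5X stock) were preincubated with pin-transferred compound for 2 h at 37 °C in the dark, then glutathione donor and nickel acceptor beads were added for 1 h before AlphaScreen reading.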
D2 potentiator – positive allosteric modulators of human D2 dopamine receptor; P14416; DiscoveRx D2 beta-arrestin cells, luminescence, 90 min; 100% = 57 uM dopamine signal; potentiation, % (test concentration not listed); 360,000 compounds, 0.23% hits; AID 624464; active = potentiation of 50% or more; inconclusive = 30% to 50%; inactive = 30% or less;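 also: compound concentration not given in the record; tested on top of an EC20 dose of dopamine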
Target sequence (P14416 whole entry, looked up): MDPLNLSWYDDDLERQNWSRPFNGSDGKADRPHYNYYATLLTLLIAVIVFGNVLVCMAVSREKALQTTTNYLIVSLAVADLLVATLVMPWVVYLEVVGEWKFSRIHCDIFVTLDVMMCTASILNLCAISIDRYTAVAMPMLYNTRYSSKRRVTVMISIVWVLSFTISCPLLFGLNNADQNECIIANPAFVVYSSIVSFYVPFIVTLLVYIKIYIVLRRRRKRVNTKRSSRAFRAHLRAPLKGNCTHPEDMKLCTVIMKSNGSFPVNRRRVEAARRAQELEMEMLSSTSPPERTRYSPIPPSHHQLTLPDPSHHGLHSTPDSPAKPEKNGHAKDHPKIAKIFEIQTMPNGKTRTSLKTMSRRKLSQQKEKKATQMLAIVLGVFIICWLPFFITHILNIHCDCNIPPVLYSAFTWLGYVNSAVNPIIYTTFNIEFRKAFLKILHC
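PathHunter D2 cells, attached overnight at 37 deg C, received compound in DMSO plus dopamine at EC20 (50 nM final) for 90 min at 37 deg C. Beta-arrestin recruitment was read as luminescence after 1 h with detection reagent at ambient temperature.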
TRPML1 blocker – blocks the human TRPML1 channel. Q9GZU1. 390,000 compounds, 0.02% hits. TRPML1-inducible cells, Ca2+ dye fluorescence, FDSS; stronger effect = lower value; inhibition of EC80 agonist-evoked calcium signal. AID 624415. activity change, negative = inhibition, % (concentration not given with the values); in the data active means activity change below about -50%; inconclusive means about -30% to -50%; inactive means above about -30%;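 also: stimulus is agonist 54-4 at its EC80 concentration; % is scaled to controls: 0 for no effect and ±100 for the full control effect; the text of the record puts the active cut at -80%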
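Tet-induced TRPML1-DL cells loaded with Ca8 no-wash calcium dye were read kinetically on FDSS. Compound addition was followed by EC80 agonist 54-4 (4 uM final); inhibition was read over 110 s.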
TRPV1 PAM – enhances activation of the human vanilloid receptor TRPV1; AID 540277; potentiation, % at 8.33 µM; 320,000 compounds, 0.02% hits; Q8NER1; TRPV1-expressing cells, Fluo-8 calcium influx, capsaicin EC20 potentiation; host cell line not named in the record; control for the full effect not named in the record; active means potentiation above 80%; inconclusive means 30% to 80%; inactive means below 30%; also: 0% is about no effect
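TRPV1-expressing cells were cultured overnight at 35.5C and loaded with Fluo-8 calcium dye for 40 to 90 min at room temperature. After a 10 s baseline, compound was added and calcium influx was read kinetically for 3 min (ex 480/em 520 nm).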
Starred values were filed as active, the others as inactive; ? = inconclusive; · = no result given; & = joins results of further samples.

SMILES | Six1-Eya2 inh | TRPML1 ag | CtBP-E1A blk | D2 potentiator | TRPML1 blocker | TRPV1 PAM
CCCOc1cccc(C2/C(=C(/O)c3ccc(OC)cc3)C(=O)C(=O)N2CCN(C)C)c1 (stereo not given) | 7 | -0.5 | -5 | -4 | -12 | -10
COc1ccc(C(=O)NCC(=O)Nc2ccccc2)cc1OC | -6 | -0.4 | 10 | -12 | -7 | 4
Cc1ccc(-c2cnc(C(O)c3ccc(C)cc3)[nH]2)cc1 (stereo not given) | -15 | -0.8 | -7 | -16 | · | ·
COc1cc(OC)c(N(C)S(=O)(=O)c2cccc(C(=O)Nc3nc(C)cs3)c2)cc1Cl | -7 | 2.2 | -3 | -2 | -8 | -7
Cc1cccc(C)c1NC(=O)CN1C(=O)CCSc2ccc(S(=O)(=O)N3CCCC3)cc21 | 6 | -0.5&-0.4 | 3 | -2 | -2&-7 | 9
COc1ccc([C@@H]2[C@@H]3C(=O)N(C(C)(C)C)C(=O)[C@@H]3[C@]3(CC(C)C)C(=O)N(c4cccc(F)c4)C(=O)N23)cc1 | -2 | 0.2 | -1 | -7 | 9 | -10
O=C1NC(=S)N/C1=C/C=C/c1ccccc1 | -1 | -0.4 | 3 | -5 | -11 | 4
CC(NC(=O)Cc1cccs1)C(c1cccs1)N1CCOCC1 (stereo not given) | 5 | -0.6 | -5 | 10 | 20 | 27
CCc1ccc(N2NC(=O)/C(=C/C=C/c3ccco3)C2=O)cc1 | 3 | 0.6 | 13 | 4 | -19 | 8
CC1CN(c2ccc([N+](=O)[O-])nc2)CC(C)O1 (stereo not given) | 7 | -0.5 | -12 | 2 | 8 | 0
COC(OC)C(C)NC(=O)NC(=O)c1ccccc1Cl (stereo not given) | -2 | -0.3 | · | -13 | 0 | 4
O=C(CCNS(=O)(=O)c1ccccc1)NNC(=O)C1COc2ccccc2O1 (stereo not given) | -3 | -0.6 | -21 | -2 | 2 | -4
CN=C(C)/C(C(=O)OC)=C(/O)c1ccccc1F | 8 | 0.4 | -2 | 1 | -4 | 5
COc1ccc(-c2nc3cnccn3c2NC2CCCCC2)cc1-c1cccc(Cl)c1 | 11&3 | 0.7&2.2 | 8&2 | -27 | 32 | ·
N#Cc1ccc(CN(Nc2ccccc2)c2ccccc2)cc1 | -14 | 2.2 | 1 | -7 | 42 | ·
Cc1cccc(NC(=O)C2CC2c2ccccc2)c1C (stereo not given) | 9 | 4.4 | -2 | -1 | 3 | -11
COc1ccc(-c2cc(C(F)(F)F)nc(-n3cc(Br)cn3)n2)cc1 | 13 | 2.1 | -6 | 0 | 56 | -12
COC(=O)c1sc2nc(C)nc(SCC(=O)N3CCC(C(=O)O)CC3)c2c1C | -3 | -0.4 | · | -11 | 2 | -13
Cc1ccccc1N1CCN(C(=S)c2ccccc2)CC1 | -4 | 4.1 | -3 | -16 | 5 | 0
c1ccc2nc3ccccc3nc2c1 | -4 | · | ? | -9 | · | -5
CCN(CC)CCCC(C)n1c(C)cc(C(=O)NS(=O)(=O)c2ccc(C)cc2)c1C (stereo not given) | 2 | 0.2 | 4 | -6 | 5 | ·
O=S(=O)(c1ccc(Cl)nc1)N1CCCCC1 | 9 | 0.3 | 0 | -8 | -3 | 5
CN(C)/C=C/C(=O)c1ccc([N+](=O)[O-])c(CS(=O)(=O)c2ccccc2)c1 | -9 | -0.3 | -9 | 4 | 4 | -4
CCN(CC)CCN1C(=O)C(=O)/C(=C(/O)c2ccncc2)C1c1ccccc1 (stereo not given) | 0 | 0.0 | -5 | 11 | 2 | 2
O=C(O)c1ccc(S(=O)(=O)NC2CCCCCC2)cc1 | 7 | -0.8 | · | 2 | -2 | ?
(next part)
SMILES | Six1-Eya2 inh | TRPML1 ag | CtBP-E1A blk | D2 potentiator | TRPML1 blocker | TRPV1 PAM
NC(=O)COc1ccc(C(=O)NCC2(N3CCOCC3)CCCCC2)cc1 | -2 | -0.9 | · | 6 | 39 | 1
COc1ccc(C(CNC(=O)c2ccc(Cl)c(S(=O)(=O)N3CCCC3)c2)N2CCCC2)cc1 (stereo not given) | -5 | 2.1 | -9 | -4 | -22 | 16
CCOc1cccc(C=NNc2ccc(S(=O)(=O)Nc3ccccc3C(=O)O)cc2[N+](=O)[O-])c1O | -9 | -0.2 | -7 | -2 | 20 | ·
CCCCn1c(=O)[nH]c(=O)c2c1nc(-c1ccc(C#N)cc1)n2C1CCCC1 | -3 | 0.8 | -2 | -9 | 6 | 16
COc1ccccc1CC(=O)Nc1cc(OC)c(NC(=O)c2ccccc2)cc1OC | ? | 3.7 | -2 | 1 | 29 | -14
O=c1c2ccccc2nnn1Cc1nnc(-c2ccccc2Br)o1 | 3 | 0.1 | -2 | 1 | -3 | -8
O=C(O)CCS(=O)(=O)c1ccccc1Cl | 26 | -0.1 | -12 | -10 | 7 | 4
O=C(Cn1cnc2c(OCc3ccccc3)ncnc21)NCc1nc2ccccc2[nH]1 | -1 | -0.4 | -8 | 0 | -16 | ·
COC(=O)c1ccc2nc(-c3ccccc3)c(Cc3ccsc3)n2c1 | -14 | 0.1 | -8 | -4 | · | ·
COc1cc(OC)c(/C=N/NC(=O)c2ccncc2)cc1Br | 1 | -0.7 | 14 | -11 | -6 | -6
O=C(/C=C/c1ccc(F)cc1)NNC(=O)CCN1CCN(Cc2ccccc2)CC1 | -9 | 0.7 | -21 | -12 | -5 | 24
O=C(Nc1cc2c(cc1Br)OCCO2)c1ccc(=O)[nH]c1 | 2 | 0.0 | -1 | -5 | -18 | ·
CC1(C)Cc2c(cnn2-c2ccccc2)-c2c1c1ccccc1n2CC(O)CBr (stereo not given) | -20 | -0.6 | -7 | -7 | -12 | -8
Cc1nc(C(=O)N/N=C/c2[nH]ncc2Br)cs1 | -2 | 0.0 | -11 | -2 | 0 | 3
Cn1c(=O)c(=O)n(C)c2cc(N3CCOCC3)c(NS(=O)(=O)c3ccc([N+](=O)[O-])cc3)cc21 | -9 | 0.6 | -8 | 5 | -2 | 22
COC(=O)C1=CN(CCCN2CCCC2=O)C=C(C(=O)OC)C1c1ccccc1C(F)(F)F | 6 | 0.0 | 5 | 0 | 21 | -10
COC(CNS(=O)(=O)c1ccc(Cl)cc1)c1ccccc1 (stereo not given) | 6 | 0.4 | -4 | -5 | 16 | 1
CCN(CC)c1ccc(C=Nc2cc(C)cc(C)c2)c(O)c1 | 1 | -0.4 | -13 | -22 | -1 | -21
O=C(CSc1nnc(CN2CCOCC2)n1-c1ccc(Cl)cc1)Nc1cc(Cl)ccc1O | -25 | 2.1 | -13 | -34 | 8 | ?
O=C(CSCc1c(Cl)cccc1Cl)Nc1ccccc1C(=O)N1CCOCC1 | 6 | -0.6 | 7 | -8 | -1 | 0
C=Cc1ccc(CN2CCCN(Cc3ccc(F)cc3)S2(=O)=O)cc1 | 45 | 1.8 | · | 2 | 63 | -19
CCOn1c(=O)c(-c2ccc(Cl)cc2)[n+]([O-])c2ccccc21 | -2 | 1.7 | 1 | -11 | 39 | -11
Cc1sc2ncnc(N3CCC(C(=O)Nc4nnc(CC(C)C)s4)CC3)c2c1C | -6 | -0.8 | 4 | -6 | -6 | 5
Cc1ccccc1NS(=O)(=O)c1ccc2c(c1)NC(=O)CO2 | 10 | -0.7 | 3 | -4 | 3 | -7
Cc1cccc(NC(=O)COC(=O)c2ccccn2)c1 | 2 | 0.5 | -12 | -1 | 0 | 7

4 of the compounds above, field by field:
COc1cc(OC)c(/C=N/NC(=O)c2ccncc2)cc1Br
  Six1-Eya2 inh: 1; TRPML1 ag: -0.7; CtBP-E1A blk: 14; D2 potentiator: -11; TRPML1 blocker: -6; TRPV1 PAM: -6
O=C(/C=C/c1ccc(F)cc1)NNC(=O)CCN1CCN(Cc2ccccc2)CC1
  Six1-Eya2 inh: -9; TRPML1 ag: 0.7; CtBP-E1A blk: -21; D2 potentiator: -12; TRPML1 blocker: -5; TRPV1 PAM: 24
O=C(Nc1cc2c(cc1Br)OCCO2)c1ccc(=O)[nH]c1
  Six1-Eya2 inh: 2; TRPML1 ag: 0.0; CtBP-E1A blk: -1; D2 potentiator: -5; TRPML1 blocker: -18; TRPV1 PAM: ·
CC1(C)Cc2c(cnn2-c2ccccc2)-c2c1c1ccccc1n2CC(O)CBr (stereo not given)
  Six1-Eya2 inh: -20; TRPML1 ag: -0.6; CtBP-E1A blk: -7; D2 potentiator: -7; TRPML1 blocker: -12; TRPV1 PAM: -8

The results go on:
SMILES | Six1-Eya2 inh | TRPML1 ag | CtBP-E1A blk | D2 potentiator | TRPML1 blocker | TRPV1 PAM
Cc1nnc(NC(=O)Cc2cccs2)s1 | -2 | 0.6 | 0 | -17 | 4 | 3
CCC(=O)N1CCc2cc(S(=O)(=O)CCC(=O)Nc3ccc(F)c(F)c3)ccc21 | 11 | 0.0 | -1 | -7 | 14 | -4
O=C(c1cccc(S(=O)(=O)N2CCOCC2)c1)N(Cc1nnc(-c2ccccc2Cl)o1)C1CC1 | -1 | 2.7 | -13 | 11 | 25 | 7
Cc1cc(C)nc(NC(=O)/C=C/c2ccc3c(c2)OCO3)c1 | -3 | 3.2 | -2 | -1 | 3 | -6
Cc1cccc(C(=O)Nc2nnc(S(=O)(=O)N3CCC(C)CC3)s2)c1 | 0 | -1.0&-0.7 | 0 | -1 | 3&-6 | 17
O=[N+]([O-])c1ccc(-c2nnc(-c3ccccc3)c(N3CCOCC3)n2)cc1 | 0 | -0.9 | -3 | -4 | 18 | 21
CCCC(=O)NC(=S)Nc1c(C)cc(Br)cc1C | 0 | -0.5 | -4 | -4 | -6 | ·
Cc1cn([C@H]2C[C@H](O)[C@@H](/C=C/C(=O)NCc3ccco3)O2)c(=O)[nH]c1=O | 9 | -0.2 | 1 | 4 | 10 | ·
S=C(NCc1ccccc1)NNc1nc2ccccc2[nH]1 | -25 | -0.1 | ? | -12 | -6 | -3
CC1CC(C)CN(S(=O)(=O)c2ccc(C(=O)N3CC(C)OC(C)C3)cc2)C1 (stereo not given) | -1 | 0.7 | -10 | 5 | -10 | -2
Cc1cc(N2CCC(C(=O)Nc3ccc(F)cc3)CC2)nc(-c2ccccc2)n1 | -1 | -0.8 | -1 | -17 | 0 | -12
COc1ccccc1OCCNc1cc(N2CCCCC2)ccc1[N+](=O)[O-] | -15 | -0.2 | -17 | -8 | 9 | 4
O=C(CSc1ccccc1)Nc1cccc(S(=O)(=O)N2CCCCC2)c1 | 2 | 1.0 | 6 | -6 | 37 | -6
CC(C)N(Cc1ccccc1)C(=O)COC(=O)c1ccc(S(=O)(=O)N2CCOCC2)cc1 | -3 | -0.6 | 0 | -7 | 23 | ·

One compound at a time, as listed above. Screens in order: Six1-Eya2 inh | TRPML1 ag | CtBP-E1A blk | D2 potentiator | TRPML1 blocker | TRPV1 PAM
S=C(NCc1ccccc1)NNc1nc2ccccc2[nH]1 across the screens: -25 | -0.1 | ? | -12 | -6 | -3
CC1CC(C)CN(S(=O)(=O)c2ccc(C(=O)N3CC(C)OC(C)C3)cc2)C1 (stereo not given) across the screens: -1 | 0.7 | -10 | 5 | -10 | -2
Cc1cc(N2CCC(C(=O)Nc3ccc(F)cc3)CC2)nc(-c2ccccc2)n1 across the screens: -1 | -0.8 | -1 | -17 | 0 | -12
Cc1nnc(NC(=O)Cc2cccs2)s1 across the screens: -2 | 0.6 | 0 | -17 | 4 | 3

This is a random part of the collection (roughly 0.95% active in at least one column).
